High-throughput results from PubChem BioAssay.
TRPML1 agonist: human mucolipin-1 channel agonism. TRPML1-expressing cells, Ca2+ dye fluorescence, FDSS; host cell line not named in the record; reference of the full effect not given here. activation, % (concentration not given with the values). 0.12% of 410,000 active. AID 624414; in the data active = activation above about 50%; inconclusive = about 30% to 50%; inactive = below about 30%; further: 0% is about no effect; the text of the record puts the active cut at 80%
Target sequence (Q9GZU1 whole entry, looked up): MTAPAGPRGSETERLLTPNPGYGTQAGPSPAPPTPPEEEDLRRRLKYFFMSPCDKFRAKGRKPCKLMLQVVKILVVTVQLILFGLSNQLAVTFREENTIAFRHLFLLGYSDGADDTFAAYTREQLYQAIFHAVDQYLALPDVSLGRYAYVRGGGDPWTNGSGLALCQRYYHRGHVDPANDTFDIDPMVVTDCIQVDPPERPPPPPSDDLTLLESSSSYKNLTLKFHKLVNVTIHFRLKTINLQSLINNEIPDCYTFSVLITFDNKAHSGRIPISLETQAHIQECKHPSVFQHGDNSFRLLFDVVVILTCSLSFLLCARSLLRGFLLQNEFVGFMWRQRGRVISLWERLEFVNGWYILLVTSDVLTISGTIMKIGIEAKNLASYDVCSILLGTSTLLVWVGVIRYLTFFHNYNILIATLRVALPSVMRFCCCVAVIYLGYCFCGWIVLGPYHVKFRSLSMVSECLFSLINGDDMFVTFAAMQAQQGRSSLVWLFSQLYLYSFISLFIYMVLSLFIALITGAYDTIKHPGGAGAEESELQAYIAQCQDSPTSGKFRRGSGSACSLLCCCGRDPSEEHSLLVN
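Tetracycline-induced TRPML1-DL cells are seeded and incubated overnight before loading with a no-wash Ca2+ dye and quencher. Agonist activity is taken from the 110 s fluorescence read following compound pin-transfer on an FDSS, before EC80 54-4 challenge.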
TRPML1 inh: human mucolipin-1 channel inhibition; activity change, negative = inhibition, % (concentration not given with the values); 0.02% of 390,000 active; TRPML1-inducible cells, Ca2+ dye fluorescence, FDSS; stronger effect = lower value; inhibition of EC80 agonist-evoked calcium signal; Q9GZU1; in the data active means activity change below about -50%; inconclusive means about -30% to -50%; inactive means above about -30%;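 further: stimulus is agonist 54-4 at its EC80 concentration; on the % scale 0 is the no-effect control and ±100 the full control effect; compound concentration not given in the record; the text of the record puts the active cut at -80%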
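TRPML1-DL cells, Tet-induced overnight (~16 h, 37 °C) at 1,500 cells/well, were loaded with Ca8 no-wash dye plus quencher for 45-90 min at room temperature. Compounds were pinned during FDSS kinetic reading; agonist 54-4 at EC80 (4 uM final) then added.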
gsp ag: gsp mutant agonism; gsp mutant cells, cAMP HTRF, 30 min; control for the full effect not named in the record; Potency, µM (doses to about 76.9 µM), without a hit: at the highest dose activation (cAMP increase), usual class: activators; 0.13% of 340,000 active; AID 624287; active = well fitted activation curve with a large enough effect; inconclusive = small, poorly fitted or top-dose-only effect, or another doubt; inactive = no such curve, though single readings can be large or run the other way; cell line not stated here;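 further: phosphodiesterase inhibitor Ro 20-1724 added with compounds to block cAMP breakdown; potency means the concentration at half of the fitted maximal effect; nearly all actives have a fitted effect of over 60% in size; about a fifth of the inactives were tested at one dose only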
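Cells stably selected in G418 were plated at 2000/well, grown 16-24 hr, then given compounds in DMSO with the PDE inhibitor […] (300 uM solution added) for 30 min at 37C; cAMP was read by HTRF.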
Menin MLL FP FL: displaces fluorescein MLL peptide from human menin; Fluorescence polarization, fluorescein-MLL peptide displacement from menin; FP activity change, % at 61.4 µM; 290,000 tested, under 10 active; AID 1766; inconclusive = falling polarisation curve, or a change in total fluorescence; inactive = total fluorescence flat and polarisation flat or rising; no compound was filed as active; the % refers to the polarisation; negative = inhibition;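 further: % of control where 0% means no effect; inhibitors lower the polarisation; unlabelled MLL peptide was the positive control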
ClpP mod: qHTS Assay for Activators of ClpP; ATP-dependent Clp protease proteolytic subunit (Bacillus subtilis (strain 168)), P80244; purified B. subtilis ClpP, FRET peptide cleavage, 20 min; Potency, µM (highest dose often 57.5 µM), for the others: at the highest dose activity change, negative = active; 1.9% of 340,000 active; AID 651965, 2013; active = well fitted falling curve with a large enough effect; inconclusive = small, poorly fitted or top-dose-only effect; inactive = no such curve, though single readings can be large or run the other way; further: potency means the concentration at half of the fitted maximal effect; the source files actives as falling curves though it sought activators and does not explain the sign; nearly all actives have a fitted effect of over 65% in size; many hits overshoot -100%
Target sequence (P80244 whole entry, looked up): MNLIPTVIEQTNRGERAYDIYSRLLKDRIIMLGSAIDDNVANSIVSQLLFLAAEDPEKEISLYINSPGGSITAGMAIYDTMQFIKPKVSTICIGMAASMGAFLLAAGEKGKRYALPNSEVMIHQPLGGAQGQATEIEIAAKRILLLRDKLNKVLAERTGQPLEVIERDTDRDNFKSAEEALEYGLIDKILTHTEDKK
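ClpP 10 microg/mL final, pH 8 Tris/KCl buffer with BSA, glycerol, Tween-20; compound pinned in; FRET-FV substrate; RT 20 min; Ex320/Em430; ΔFRET vs ADEP 5.8 microM, DMSO, no enzyme.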
gsp antagonist: gsp mutant antagonism | gsp-mutant cells, cAMP HTRF, 30 min; control for the full effect not named in the record | Potency, µM (highest dose often 76.9 µM), for the others: top-dose activity change, negative = inhibition, hits mostly inhibitors | 0.4% of 340,000 active | AID 624288; active = falling curve of any shape with a large fitted effect; inconclusive = falling curve, mostly with a smaller effect; inactive = flat or rising curve; cell line not stated here;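 further: intracellular cAMP measured with PDE inhibitor Ro 20-1724 present during compound exposure; potency means the concentration at half of the fitted maximal effect; on the % scale 0 is the no-effect control and ±100 the full control effect; nearly all actives have a fitted effect of over 65% in size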
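Cells in G418 medium, seeded 16-24 h, 37C; buffer exchange to DPBS + 1 mM CaCl2, 0.5 mM MgCl2, 0.05% BSA; cpds in DMSO + […] (300 uM stock), 30 min 37C; HTRF cAMP detection.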
* = called active by the depositor; ? = inconclusive; . = not tested or not shown; & = joins results of further samples; [ ] = another dose, or the depositor's remark.

No.	structure	TRPML1 agonist	TRPML1 inh	gsp ag	Menin MLL FP FL	ClpP mod	gsp antagonist
1	CCOc1ccc(C(=O)NCCn2cc(SCC(=O)Nc3cc(C)on3)c3ccccc32)cc1	2.2	-14	-15%	2.0	-1.7%	-34%
2	O=C(CNS(=O)(=O)c1cccs1)N1CCN(c2ccccc2Cl)CC1	1.2	1	.	.	-0.9%	.
3	Cc1ccnc(NC(=O)C(C)N2C(=O)c3ccccc3C2=O)c1 (stereo unspecified)	0.2	10	-3%[15.4 µM]	-0.1	.	4%
4	Oc1ccc(/C=N/N=C/c2ccc(O)cc2)cc1	1.3	-14	20%	3.1	.	-4%
5	CCOC(=O)CSc1nc2cc(C(=O)OC)ccc2c(=O)n1CCN1CCOCC1	-1.3	1	-9%	3.5	-8.2%	0%
6	CCOC(=O)COc1ccccc1/C=C1\NC(=O)NC1=O	-1.0	4	12%[15.4 µM]	2.5	.	2%
7	CN(C)S(=O)(=O)N1CCC(Oc2cccc(C(=O)N3CCCCCCC3)c2)CC1	-0.3	19	-31%[inhibitor]	-1.2	-1.6%	-4%
8	COc1ccc(-n2cc(C(=O)NCCc3cc(OC)ccc3OC)c3ccccc3c2=O)cc1	2.4	14	.	.	-4.7%	.
9	CCOC(=O)C1(Cc2ccccc2C(F)(F)F)CCN(C(C)CSC)CC1 (stereo unspecified)	1.3	16	-3%	1.7	-1.3%	1%
10	Cc1ccccc1C(=O)NCc1nc(-c2ccc(Cl)cc2)no1	-0.8	-2	.	.	0.7%	.
11	O=C(CN1C(=O)C2C3C=CC(C3)C2C1=O)N1CCc2ccccc2C1 (stereo unspecified)	0.2	0	-1%	0.1	-0.5%	2%[15.4 µM]
12	COc1ccc(-c2nnn3c2nc(NCCc2ccc(OC)c(OC)c2)c2ccccc23)cc1	-1.0	37	.	.	0.8%	.
13	NNc1nc(Nc2ccccc2)nc(Nc2ccccc2)n1	-0.2	7	-6%	7.6	.	3%
14	Cc1cc(C)cc(NC(=O)C2CC(=O)n3ncnc3N2)c1 (stereo unspecified)	-0.4	-17	30%	9.4	-1.6%	8%
15	Cn1c2ccccc2c(=O)c2cc(C#CC3(O)CCCCC3)ccc21	0.2	0	.	-1.1	4.4%	-11%
16	COc1ccc2c(c1)c1nc3ccccc3nc1n2Cc1ccc(OC)c(OC)c1	1.6	0	14%	?	-17%	8%
17	COc1cc(C2CC(=O)Nc3c2c(=O)n(C)c2ncnn32)cc(OC)c1OC (stereo unspecified)	0.9	-5	.	.	-7.7%	.
18	C=C1CSc2nc(=O)c3c(C)c(C)sc3n21	1.4	-9	18%[15.4 µM]	1.3	16µM*	8%
19	COC(=O)C(Cc1ccc(O)cc1)NC(=O)C(C)Oc1ccccc1 (stereo unspecified)	-0.5	-6	-10%	1.7	-1.5%	-20%
20	CCN(CC(=O)Nc1ccc(NC(C)=O)cc1)C(=O)c1ccc(N2CCCC2)c([N+](=O)[O-])c1	0.0	-8	7%	.	1.1%	0%
21	CN(C(=O)CN1C(=O)c2ccccc2S1(=O)=O)C1CCCCC1	0.4	-6	-2%[15.4 µM]	.	2.0%	4%
22	COc1cc(OC)c(C2=NOC(C(=O)NCc3cccnc3)C2)cc1Cl (stereo unspecified)	.	.	4%	3.1	-12%	5%
23	O=C(NC1CC1)c1cccc(NC(=O)C2CCN(S(=O)(=O)c3cccc(C(F)(F)F)c3)CC2)c1	-0.4	16	8%	.	-1.7%	0%
24	Cc1ccc2c(c1)C(=O)OC(C(=O)Nc1ncc(Cc3ccc(Cl)cc3)s1)C2 (stereo unspecified)	1.1	16	.	.	-0.9%	.
25	O=C(Cn1ncc2c(=O)oc3ccccc3c21)NCc1ccc(Cl)cc1	0.1	-19	.	.	-2.6%	.
26	Cc1ccc(-c2noc(-c3nnn(CC(=O)Nc4cc(Cl)ccc4C)c3N)n2)cc1	-0.2	-6	.	.	0.9%	.
27	COc1cccc(N(CC(=O)NCCSCc2ccc(C)cc2)S(C)(=O)=O)c1	.	.	2%	-0.1	-1.2%	-7%
28	COc1ccc(/C(C)=N/N2CCCCC2)c(O)c1	1.6	11	-13%	0.3	0.5%	8%
29	Nc1ncnc2c1ncn2[C@@H]1O[C@H](CNS(=O)(=O)C2CC2)[C@@H](O)[C@H]1O	-0.4	2	.	.	0.7%	7%
30	CNc1nc(=O)n(C2CCCO2)cc1C (stereo unspecified)	0.3	6	9%	.	1.4%	3%
31	CC#CC(=O)N1CCCC(C(=O)c2ccc(SC)cc2)C1 (stereo unspecified)	1.4	12	?	-5.1	-3.5%	1%
32	Cc1ccc(N2C(=O)C3ON(c4ccccc4)C(c4ccncc4)C3C2=O)c(C)c1 (stereo unspecified)	-0.3	-18	-20%	5.6	2.8%	-7%
33	Cn1c(C(O)c2ccccc2)nc(Cl)c1Cl (stereo unspecified)	-0.3	-8	22%	1.5	-0.3%	-2%
34	CCNC(=O)Cn1cc(C(F)(F)F)cc(Cl)c1=O	.	.	-27%	1.5	-2.6%	0%
35	CCN(c1ccccc1)S(=O)(=O)c1ccc(Cl)c(NC(=O)COC(=O)c2ccc(Cl)c(N)c2)c1	1.5	2	6%	0.3	?	-5%
36	CCN1C(=O)C2(C(C(=O)c3ccc(C)o3)=C(O)C(=O)N2CCCN2CCOCC2)c2ccccc21 (stereo unspecified)	0.9	-2	9%	5.7	-0.1%	3%
37	O=C(Nc1ccn(Cc2ccccc2F)n1)c1ccc(COc2ccc(Cl)cc2Cl)o1	0.3	2	5%	2.9	-17%	-18%
38	O=C(Nc1cccc(Cl)c1)Nc1ccccc1C(=O)O	0.4	-12	-3%	0.2	4.1%	-4%
39	CCOC(=O)c1ccc(NC(=O)CNC(=O)C2CCCCC2)cc1	0.2	-1	-6%	2.5	-1.7%	1%
40	CSc1nc(C)cc(OCC(=O)N2CCOCC2)n1	-0.6	0	-6%	0.1	-1.9%	7%
41	O=C(Nc1cccnc1)C1CCCN(c2ncnc3c2nc2n3CCCCC2)C1 (stereo unspecified)	-1.4	-7	1%	3.1	0.8%	-6%
42	CN(Cc1ccccc1)C(=O)c1cccc(NC(=O)Cc2ccc(NC(=O)C3CCN(S(=O)(=O)c4cccc([N+](=O)[O-])c4)CC3)cc2)c1	0.2	22	.	.	0.4%	-3%
43	CCOC(=O)c1[nH]c2ccccc2c1NC(=O)Nc1ccc(OC)cc1	-0.7	8	-2%	0.8	-1.5%	-2%
44	O=C(Nc1ccccc1Oc1ccccc1)c1cccs1	1.2	11	3%[15.4 µM]	4.3	0.2%	6%
45	COc1ccc(OC)c(S(=O)(=O)N2CCC(C(=O)NC3CC3)CC2)c1	0.8	3	10%[15.4 µM]	-6.1	.	5%
46	COC(=O)c1ccccc1NC(=O)C(CCS(C)(=O)=O)NC(C)=O (stereo unspecified)	0.8	16	22%	1.0	28µM*	5%
47	CCOC(=O)c1ccc2ncc(C(=O)OCC)c(NCCCN3CCOCC3)c2c1	0.0	-21	-40%[inhibitor]	-2.7	-16%	-14%
48	CC(=O)Nc1ccc(C(=O)N/N=C(\C)CC(=O)Nc2ccc(OCc3ccccc3)cc2)cc1	-0.3	4	14%	2.4	1.9%	1%
49	CCCCn1c(N)c(N(CC)C(=O)c2c(C)noc2C)c(=O)[nH]c1=O	-0.3	8	17%	.	.	3%
50	CCOC(=O)NC(NC(=S)Nc1ccc(OC)cc1)C(Cl)(Cl)Cl (stereo unspecified)	0.7	0	-2%[15.4 µM]	-1.2	.	10%
51	Nc1cccc(CCc2nc3ccccc3[nH]2)c1	0.6	15	2%[15.4 µM]	2.5	-2.2%	4%
52	COc1ccc(NC(=O)CCn2c(=O)c3cccn3c3ccccc32)c(OC)c1	-0.6&3.0	-6&18	10%	.	1.4%&-3.3%	?
53	COc1ccc(/C=C2\CCC(C3CCCC3)C2=O)cc1OC (stereo unspecified)	-0.2	18	6%[15.4 µM]	-1.9	0.7%	-3%
54	CCOc1ccc(NC(=O)CN2CCN(C3c4ccccc4-c4ccccc43)CC2)cc1	0.1	11	0%	1.3	-6.2%	11%
55	CCN(CC(=O)NCc1ccc(F)cc1)C(=O)CN1CCN(c2ccccc2OC)CC1	-0.4	42	-4%[15.4 µM]	-3.6	.	.
56	COc1ccccc1NC(=O)CSc1nc(-c2ccc(C(C)(C)C)cc2)c(C#N)c(=O)[nH]1	1.4	?	.	.	-1.4%	.
57	Cc1ccc(Cn2c(C3CCCN3c3nc(-c4ccc(F)cc4)cs3)nc3cc(C(F)(F)F)ccc32)cc1 (stereo unspecified)	-0.6	16	.	.	-1.4%	?
58	NC(=O)c1ccc(=O)n(C2OC(CO)C(O)C2O)c1 (stereo unspecified)	0.5	8	-3%	.	-12%	7%
59	COc1ccc(OC)c(NC(=O)COc2ccc(Br)cc2)c1	.	.	14%	0.5	3.1%	-24%
60	COC(=O)NCc1ccc(Cl)c(Cl)c1	-0.2	22	-15%	2.0	-1.3%	7%

(next part)
No.	structure	TRPML1 agonist	TRPML1 inh	gsp ag	Menin MLL FP FL	ClpP mod	gsp antagonist
61	CCn1nc(C)c(CNC(=O)Nc2ccc3c(c2)OCO3)c1C	0.0	-8	8%[15.4 µM]	-6.6	-9.9%	4%
62	CCC(CO)Oc1cc(NCc2cccc(C(F)(F)F)c2)c2ncn(C(C)C)c2c1 (stereo unspecified)	0.3	12	-27%	.	-1.5%	1%
63	Cc1ccc2nc(C3CCCN(C(=S)Nc4cccc(C)c4C)C3)[nH]c2c1 (stereo unspecified)	0.4	-10	-25%	-0.3	-1.0%	-12%
64	O=C(/C=C/c1ccc2ccccc2n1)c1cc(Cl)ccc1O	1.7	24	27%	?	3.6%	-12%
65	COc1cc(C2NCC(c3ccc(Cl)cc3Cl)c3c2[nH]c2ccccc32)cc(OC)c1OC (stereo unspecified)	-0.4	-1	-4%[15.4 µM]	7.0	-0.1%	-10%
66	CC(C)c1ccc2[nH]c3c(c2c1)CCCC3=O	1.7	-12	3%[15.4 µM]	0.8	.	1%

Gathered by group, the compounds so far containing two or more sulfur atoms.
No.	structure	TRPML1 agonist	TRPML1 inh	gsp ag	Menin MLL FP FL	ClpP mod	gsp antagonist
2	O=C(CNS(=O)(=O)c1cccs1)N1CCN(c2ccccc2Cl)CC1	1.2	1	.	.	-0.9%	.
18	C=C1CSc2nc(=O)c3c(C)c(C)sc3n21	1.4	-9	18%[15.4 µM]	1.3	16µM*	8%
27	COc1cccc(N(CC(=O)NCCSCc2ccc(C)cc2)S(C)(=O)=O)c1	.	.	2%	-0.1	-1.2%	-7%
